High-throughput results as filed in PubChem BioAssay.
EPAC2 antag: Validation qHTS for antagonist of cAMP-regulated guanine nucleotide exchange factor 4 (EPAC2) | Rap guanine nucleotide exchange factor 4 (Homo sapiens), Q8WZA2 | EPAC2 Rap1B BODIPY-GDP exchange, fluorescence | actives 1.7% (n = 16,000) | AID 1645886, 2021 | Potency, µM (highest dose often 112 µM), inactives show at the top dose activity, negative = inhibition, hits mostly inhibitors; active = well fitted inhibition curve with a large enough effect; inconclusive = small, poorly fitted or top-dose-only effect; inactive = no such curve, though single readings can be large or run the other way;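 note: 100% = activation by cAMP agonist control; nearly all actives have a fitted effect of over 40% in size; the record reuses the description of the EPAC1 agonist screen; inactives centre near -10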
Target sequence (Q8WZA2 whole entry, looked up): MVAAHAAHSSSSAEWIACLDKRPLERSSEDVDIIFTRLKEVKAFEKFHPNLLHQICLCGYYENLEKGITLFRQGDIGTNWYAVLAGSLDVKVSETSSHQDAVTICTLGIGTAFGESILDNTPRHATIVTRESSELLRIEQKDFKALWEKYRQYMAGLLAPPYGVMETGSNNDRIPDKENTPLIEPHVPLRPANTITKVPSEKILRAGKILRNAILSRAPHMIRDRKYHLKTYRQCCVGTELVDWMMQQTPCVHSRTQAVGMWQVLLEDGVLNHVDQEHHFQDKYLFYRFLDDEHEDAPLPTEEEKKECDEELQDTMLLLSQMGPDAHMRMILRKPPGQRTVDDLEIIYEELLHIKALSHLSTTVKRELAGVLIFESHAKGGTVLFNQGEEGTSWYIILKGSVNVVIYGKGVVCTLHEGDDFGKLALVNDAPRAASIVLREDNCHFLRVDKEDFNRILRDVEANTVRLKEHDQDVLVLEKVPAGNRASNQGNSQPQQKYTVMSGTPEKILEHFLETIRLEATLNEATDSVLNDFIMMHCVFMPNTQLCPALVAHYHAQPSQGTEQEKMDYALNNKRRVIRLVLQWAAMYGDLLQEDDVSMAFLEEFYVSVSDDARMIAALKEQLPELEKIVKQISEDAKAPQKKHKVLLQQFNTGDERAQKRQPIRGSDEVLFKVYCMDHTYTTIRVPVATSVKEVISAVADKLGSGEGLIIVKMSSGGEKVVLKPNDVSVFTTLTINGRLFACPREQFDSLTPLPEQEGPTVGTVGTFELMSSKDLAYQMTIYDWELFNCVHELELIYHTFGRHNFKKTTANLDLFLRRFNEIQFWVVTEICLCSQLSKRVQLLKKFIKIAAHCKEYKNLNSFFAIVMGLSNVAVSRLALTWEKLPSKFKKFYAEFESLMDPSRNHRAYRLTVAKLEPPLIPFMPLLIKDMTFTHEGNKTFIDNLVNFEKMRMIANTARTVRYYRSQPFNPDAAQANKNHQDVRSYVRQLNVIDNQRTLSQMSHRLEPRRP
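Normalized against a 6.5 mM cAMP agonist control, compounds were tested on 100 nM EPAC2 exchanging Rap1B-bound BODIPY-GDP (250 nM) for 50 uM GDP. Fluorescence drop (ex 480, em 540 nm) was tracked at room temperature over 30 min at 5-min intervals.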
Active calls of the source: *; ? = inconclusive; & = joins results of further samples; [ ] = another dose, or the depositor's remark. Potency is the fitted concentration of half-maximal effect.

SMILES	EPAC2 antag
c1ccc2c(c1)Sc1ccccc1N2C[C@@H]1CN2CCC1CC2	10%
O=c1ccc2cc(O[C@H]3OC(CO)C(O)C(O)C3O)c(O)cc2o1 (stereo not given in full)	-4%&-11%
CC(C)[C@@]1(NC(=O)[C@@H]2C[C@@H]3c4cccc5[nH]cc(c45)C[C@H]3N(C)C2)O[C@@]2(O)[C@@H]3CCCN3C(=O)[C@H](Cc3ccccc3)N2C1=O	?
CCC(N)Cc1c[nH]c2ccccc12 (stereo not given)	-24%[239 µM]
CCC1C2CC3C4N(C)c5ccccc5[C@]45CC(C2C5O)N3C1O (stereo not given in full)	-9%
CC(C)(C)c1cc(O)ccc1O	442%&1%[activator]
C[C@]12CC[C@H]3[C@@H](CCC4=CC(=O)CC[C@@]43C)[C@@H]1CC[C@@H]2OC(=O)CCc1ccccc1	-10%[239 µM]
Cn1cc(C2=C(c3cn(C4CCN(Cc5ccccn5)CC4)c4ccccc34)C(=O)NC2=O)c2ccccc21	-12%
CN1C[C@H](C(=O)N[C@]2(C)O[C@@]3(O)[C@@H]4CCCN4C(=O)[C@H](Cc4ccccc4)N3C2=O)C=C2c3cccc4[nH]cc(c34)C[C@H]21	69%[activator]
CN(C(=O)Cc1ccccc1)[C@H](CN1CCCC1)c1ccccc1	-15%&-12%
COc1ccc(CC2c3cc(OC)c(OC)cc3CCN2C)cc1OC (stereo not given)	-8%
CCn1cnc2c(Nc3cccc(Cl)c3)nc(N[C@@H]3CCCC[C@@H]3N)nc21	10%
CC(C)=CCCC1(C)C=Cc2c(O)c3c(c(CC=C(C)C)c2O1)OC12C(=CC4CC1C(C)(C)OC2(C/C=C(/C)C(=O)O)C4O)C3=O (stereo not given)	-26%
CCOC(=O)/C=C(C)/C=C/C[C@@H](C)CCCC(C)C	-17%
C=C[C@H]1CN2CC[C@H]1C[C@H]2[C@H](OC(=O)OCC)c1ccnc2ccc(OC)cc12	-10%
CS(=O)(=O)N1CCC2(CCCN(Cc3ccncc3)C2)CC1	-18%
O=C(c1csnn1)N1CCC[C@@]2(CCN(Cc3ccncc3)C2)C1	-17%
C[C@@H](N)Cn1ccc2cc(F)c(Cl)cc21	-6%
CCCN(CCC)[C@H]1CCc2c(F)ccc(O)c2C1	?
CN1c2ccccc2C(NCCCCCCC(=O)O)c2ccc(Cl)cc2S1(=O)=O (stereo not given)	22%
N[C@@H](CCCCP(=O)(O)O)C(=O)O	-17%
CCCCc1ccc(C(=O)O)nc1	-6%&17%&17%
Cc1sc2ccccc2c1CC1=NCCN1	-7%
CCCCOC(=O)c1ccccc1C(=O)OCCCC	?
Clc1cnc(Oc2ccc(Oc3ncc(Cl)cc3Cl)cc2)c(Cl)c1	-14%&-22%
CCCC[N+]1(C)C2CC(OC(=O)[C@H](CO)c3ccccc3)CC1C1OC12 (stereo not given in full)	-16%
COc1cc(N)c(Cl)cc1C(=O)NC1CN2CCC1CC2 (stereo not given)	-12%
O=C(O)[C@@H]1CSC(c2cccnc2)N1 (stereo not given in full)	21%
COc1ccc(C(=O)CN2CCOCC2)cc1	9%
CCC1C(C)=NN=C(c2ccc(OC)c(OC)c2)c2cc(OC)c(OC)cc21 (stereo not given)	5%
O=C1c2ccccc2-c2cccc3cccc1c23	3%
CCS(=O)(=O)Nc1cccc(C(=C2CCCCC2)c2cnc[nH]2)c1	-1%
O=C1CN(O)C(c2ccccc2)=c2cc(Cl)ccc2=N1	4%
c1cnc(N2CC3(CCNCC3)C2)nc1	-19%
O=C(CCCN1CCC(n2c(=O)[nH]c3ccccc32)CC1)c1ccc(F)cc1	-3%[56.6 µM]
O=C1/C(=C\c2ccccc2)C[C@@]2(O)[C@H]3Cc4ccc(O)c5c4[C@@]2(CCN3CC2CC2)[C@@H]1O5	-39%
c1ccc2c(c1)OCC(C1=NCCN1)O2 (stereo not given)	-22%&15%
O=C(Oc1ccccc1)N1CCC2(CCCN(Cc3ccccc3)C2)CC1	?
COC(=O)[C@@H]1[C@H]2CC[C@@H](C[C@H]1OC(=O)c1ccccc1)N2C	19%
C[C@]12CCC3C(CC[C@]4(O)C[C@@H](O)CC[C@]34C=O)[C@@]1(O)CC[C@@H]2C1=CC(=O)OC1 (stereo not given in full)	-13%
NCCc1ccc(O)cc1	-20%&-35%&-10%&1%
CN1CC[C@]23c4c5ccc(O)c4O[C@H]2[C@@H](O)C=C[C@H]3[C@H]1C5	1%[239 µM]
N#Cc1nn(-c2c(Cl)cc(C(F)(F)F)cc2Cl)c(N)c1S(=O)C(F)(F)F (stereo not given)	-5%[151 µM]
CCCCCCCCCC(=O)O[C@H]1CC[C@H]2[C@@H]3CCC4=CC(=O)CC[C@@H]4[C@H]3CC[C@]12C	-18%
CCCN1CCC[C@H](c2cccc(O)c2)C1	6%&10%
C=C1C2CC[C@@]3(C)C(c4ccoc4)OC(=O)C[C@@]13OC1CC(=O)C(C)(C)C(C(OC(C)=O)C(=O)OC)[C@@]12C (stereo not given in full)	-16%
c1cc2c(c(NC3=NCCN3)c1)CCCC2	-10%
COc1ccc(C[C@H]2NC[C@H](O)[C@@H]2OC(C)=O)cc1	-26%
Cc1ccc2c(c1)[C@]13CCCC[C@@H]1[C@H](C2)N(C)CC3	4%
O=C(O)Cc1cccnc1C(=O)O	-24%&2%

The list goes on:
SMILES	EPAC2 antag
CCCCCl	?
COc1cc2c3cc1Oc1c(OC)c(OC)cc4c1C(Cc1cccc(c1)Oc1ccc(c(O)c1)CC3N(C)CC2)N(C)CC4 (stereo not given)	2%
CC(=O)O[C@@H]1CN2CCC1CC2	-10%
CC(=O)[C@H]1CC[C@H]2[C@@H]3CC[C@H]4C[C@H](O)CC[C@]4(C)[C@H]3C(=O)C[C@]12C	-6%&-4%
O=C(O)[C@H]1[C@H]2CN[C@H](C(=O)O)[C@H]21	12%&-17%
CC1(C(=O)O)C2CCC(O2)C1(C)C(=O)O (stereo not given)	6%
CC(NC(C)(C)C)C(=O)c1cccc(Cl)c1 (stereo not given)	-19%&-9%&6%
CC(=O)O[C@H]1CC[C@@]2(C)C(=CC[C@@H]3[C@@H]2CC[C@]2(C)C(=O)CC[C@@H]32)C1	?
COC(=O)COc1ccc(Cl)cc1Cl	?
CC(C)Oc1cccnc1N(C)C1CCN(Cc2ccccc2)CC1	-4%
Nc1ccc(N)cc1	-14%
CC[C@H]1C[C@H]2[C@@H]3CCC4=CC(=O)CC[C@@H]4[C@H]3CC[C@]2(C)[C@H]1O	9%
Nc1ccc([N+](=O)[O-])cc1	23%[239 µM]
c1ccc2sc(C3(NCC4CC4)CCCCC3)cc2c1	?
CCCCC1C(=O)NC(=O)N(C2CCCCC2)C1=O (stereo not given)	7%
C=CCc1ccc(OC)cc1	-9%
CCCN(CCC)[C@@H]1CCc2c(OC)cccc2[C@@H]1C	-18%&-22%
CN[C@@]1(c2ccccc2Cl)CCCCC1=O	6%
CC(C)C[C@H](NC(=O)[C@H](Cc1ccccc1)NC(=O)CNC(=O)[C@@H](NC(=O)[C@@H](N)Cc1ccc(O)cc1)[C@H](C)O)C(=O)N[C@H](C(=O)O)[C@H](C)O	5%[11.4 µM]
O=C(N[C@@H]1N=C(c2ccccc2F)c2cccc3c2N(CC3)C1=O)c1cc2ccccc2[nH]1	12%

5 compounds picked at random from those above:
SMILES	EPAC2 antag
CC(C)Oc1cccnc1N(C)C1CCN(Cc2ccccc2)CC1	-4%
O=C(O)[C@@H]1CSC(c2cccnc2)N1 (stereo not given in full)	21%
COc1ccc(C[C@H]2NC[C@H](O)[C@@H]2OC(C)=O)cc1	-26%
CC(C)C[C@H](NC(=O)[C@H](Cc1ccccc1)NC(=O)CNC(=O)[C@@H](NC(=O)[C@@H](N)Cc1ccc(O)cc1)[C@H](C)O)C(=O)N[C@H](C(=O)O)[C@H](C)O	5%[11.4 µM]
CCOC(=O)/C=C(C)/C=C/C[C@@H](C)CCCC(C)C	-17%

The list goes on:
SMILES	EPAC2 antag
Clc1cccc(SC2CCNCC2)n1	-3%&-17%
O=C(Cc1ccc(Cl)c(Cl)c1)N1CCCCC1CN1CCCC1 (stereo not given)	0%&4%
CN1CCc2cc(O)cc3c2[C@H]1Cc1ccc(O)c(O)c1-3	-21%
O=C(NC(=O)c1ccccc1Cl)Nc1ccc(OC(F)(F)F)cc1	-6%
O=C(NC(=O)c1c(F)cccc1F)Nc1ccc(Cl)c(Oc2ncc(C(F)(F)F)cc2Cl)c1	-6%
CCN1C[C@]2(COC(=O)c3ccccc3N3C(=O)C[C@H](C)C3=O)CC[C@H](OC)[C@@]34[C@@H]5C[C@H]6[C@H](OC)[C@H]5[C@](O)(C[C@@H]6OC)[C@@](O)([C@@H](OC)[C@@H]23)[C@@H]14	-6%
NCCCP(=O)(O)O	-10%
CN1CC(CNC(=O)OCc2ccccc2)CC2c3cccc4c3c(cn4C)CC21 (stereo not given)	-25%
O=C(O)c1cc[c]([Hg][Cl])cc1	1%
COc1cc2c(cc1O)-c1c(O)c(OC)cc3c1[C@H](C2)N(C)CC3	-9%
COC(=O)C(c1ccccc1)C1CCCCN1 (stereo not given)	-8%
c1cc2cc(c1)C[n+]1ccc(c3ccccc31)NCc1ccc(cc1)CNc1cc[n+](c3ccccc13)C2	-16%
O=C(Oc1ccccc1)N1CCC2(CC1)CCN(C(c1ccccc1)c1ccccc1)CC2	-6%
CC(C)(C)NC[C@@H](O)COc1cccc2[nH]c(C#N)cc12	-14%
O=C(Oc1ccccc1)N1CCC2(CCN(Cc3ccccc3)CC2)CC1	-3%
COc1ccc(NC(=O)N2CCC3(CC2)CCN(C(=O)Oc2ccccc2)CC3)cc1	-22%
Clc1ccc(Cl)cc1	9%
CCN(CC)/[N+]([O-])=N/O	-20%
CC(=O)O[C@H]1C[C@H](O[C@H]2[C@@H](O)C[C@H](O[C@H]3[C@@H](O)C[C@H](O[C@H]4CC[C@@]5(C)[C@H](CC[C@@H]6[C@@H]5C[C@@H](O)[C@]5(C)[C@@H](C7=CC(=O)OC7)CC[C@]65O)C4)O[C@@H]3C)O[C@@H]2C)O[C@H](C)[C@H]1O[C@@H]1O[C@H](CO)[C@@H](O)[C@H](O)[C@H]1O	14%
C[N+]1([O-])[C@@H]2CC[C@H]1CC(OC(=O)C(CO)c1ccccc1)C2 (stereo not given in full)	-22%[56.6 µM]

Sorted by formula weight (highest first): part of the list above.
SMILES	EPAC2 antag
c1cc2cc(c1)C[n+]1ccc(c3ccccc31)NCc1ccc(cc1)CNc1cc[n+](c3ccccc13)C2	-16%
O=C(Oc1ccccc1)N1CCC2(CC1)CCN(C(c1ccccc1)c1ccccc1)CC2	-6%
O=C(Oc1ccccc1)N1CCC2(CCN(Cc3ccccc3)CC2)CC1	-3%
C[N+]1([O-])[C@@H]2CC[C@H]1CC(OC(=O)C(CO)c1ccccc1)C2 (stereo not given in full)	-22%[56.6 µM]
CC(C)(C)NC[C@@H](O)COc1cccc2[nH]c(C#N)cc12	-14%
CCN(CC)/[N+]([O-])=N/O	-20%

Remaining list, next part
SMILES	EPAC2 antag
O=C(Nc1cccc(F)c1)N1CC2(CCN(C(=O)Oc3ccccc3)CC2)C1	-25%
CC(C)NC[C@H](O)c1ccc(N)c(C#N)c1	-19%
C#CCN(C)[C@H](C)Cc1ccccc1	-14%[239 µM]
CCCCCCCCCCCCCCCC[n+]1ccccc1	?
O=C(c1ccncc1)N1CCC2(CC1)CN(Cc1ccccc1)C2	-5%
CCN(CCO)CCn1c(Cc2ccccc2)nc2c1c(=O)n(C)c(=O)n2C	4%
CN(C)[C@H](Cc1ccccc1)c1ccccc1	2%
CC(CC(C#N)(c1ccccc1)c1ccccc1)N(C)C (stereo not given)	2%[239 µM]
C[C@H](N)C(=O)N[C@@H](C)C(=O)N[C@@H](Cc1ccccc1)C(=O)CCl	-4%[151 µM]
CN=C1CN(O)C(c2ccccc2)=c2cc(Cl)ccc2=N1	27%&-42%
C[C@]12CCC(=O)C=C1CC[C@@H]1[C@H]3CC[C@](C)(O)[C@@]3(C)CC[C@@H]12	23%[239 µM]
c1ccc2c(c1)Sc1ccccc1N2CC1CN2CCC1CC2 (stereo not given)	5%
Cc1c(Cl)c(=O)oc2cc(OP(=O)(OCCCl)OCCCl)ccc12	-16%

An excerpt; count on the stated rates, not on these rows.
